TRPV1 potentiator: human TRPV1 potentiation. potentiation, % at 8.33 µM. AID 540277. hit rate 0.02% among 320,000. TRPV1-expressing cells, Fluo-8 calcium influx, capsaicin EC20 potentiation; host cell line not named in the record; control for the full effect not named in the record; active means potentiation above 80%; inconclusive means 30% to 80%; inactive means below 30%; note: 0% is about no effect
Target sequence (Q8NER1 whole entry, looked up): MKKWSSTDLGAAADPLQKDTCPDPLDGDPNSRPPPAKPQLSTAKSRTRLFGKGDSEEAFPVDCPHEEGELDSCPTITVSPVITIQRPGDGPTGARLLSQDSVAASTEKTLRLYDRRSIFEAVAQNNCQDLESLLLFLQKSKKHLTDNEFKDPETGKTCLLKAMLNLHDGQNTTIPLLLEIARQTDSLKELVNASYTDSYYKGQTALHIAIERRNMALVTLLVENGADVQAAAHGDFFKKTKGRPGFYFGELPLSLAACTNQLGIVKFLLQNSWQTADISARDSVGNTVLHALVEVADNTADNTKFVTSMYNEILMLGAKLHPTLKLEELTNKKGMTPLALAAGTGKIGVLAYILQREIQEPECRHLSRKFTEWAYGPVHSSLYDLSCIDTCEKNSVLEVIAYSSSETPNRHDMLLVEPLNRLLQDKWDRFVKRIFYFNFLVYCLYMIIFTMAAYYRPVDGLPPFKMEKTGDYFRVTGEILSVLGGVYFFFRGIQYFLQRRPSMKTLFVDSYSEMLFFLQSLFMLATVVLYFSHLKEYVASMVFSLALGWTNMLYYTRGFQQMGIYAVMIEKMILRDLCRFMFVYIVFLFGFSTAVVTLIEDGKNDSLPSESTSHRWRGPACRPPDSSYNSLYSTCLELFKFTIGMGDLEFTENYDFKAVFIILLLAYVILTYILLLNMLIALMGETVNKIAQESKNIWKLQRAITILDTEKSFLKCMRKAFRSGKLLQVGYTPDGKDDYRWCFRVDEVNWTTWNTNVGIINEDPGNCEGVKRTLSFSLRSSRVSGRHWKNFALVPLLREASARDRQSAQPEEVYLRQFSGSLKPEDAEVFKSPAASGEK
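TRPV1-expressing cells were cultured overnight at 35.5C and loaded with Fluo-8 calcium dye for 40 to 90 min at room temperature. After a 10 s baseline, compound was added and calcium influx was read kinetically for 3 min (ex 480/em 520 nm).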
D2 potentiator: potentiates the human D2 dopamine receptor allosterically. P14416. DiscoveRx D2 beta-arrestin cells, luminescence, 90 min; 100% = 57 uM dopamine signal. AID 624464. hit rate 0.23% among 360,000. potentiation, % (no concentration beside the values); active = potentiation of 50% or more; inconclusive = 30% to 50%; inactive = 30% or less;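 note: compound concentration not given in the record; tested on top of an EC20 dose of dopamine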
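D2 cells co-treated with compound plus 50 nM dopamine (EC20) for 90 min at 37 deg C to detect potentiation. Beta-arrestin recruitment was read as enzyme-fragment luminescence after 1 h at ambient temperature. Full response was set by 57 uM dopamine.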
Menin MLL FP FL: inhibitors of human menin-MLL interaction, wild-type MLL peptide; AID 1766; 290,000 tested, under 10 active; FP activity change, % at 61.4 µM; Fluorescence polarization, fluorescein-MLL peptide displacement from menin; inconclusive = falling polarisation curve, or a change in total fluorescence; inactive = total fluorescence flat and polarisation flat or rising; no compound was filed as active; the % refers to the polarisation; negative = inhibition;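 note: % of control where 0% means no effect; inhibitors lower the polarisation; unlabelled MLL peptide was the positive control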
gsp antag: gsp mutant antagonism. gsp-mutant cells, cAMP HTRF, 30 min; control for the full effect not named in the record. Potency, µM (highest dose often 76.9 µM), for inactives: at the highest dose activity change, negative = inhibition, most hits filed as inhibitors. hit rate 0.4% among 340,000. AID 624288; active = falling curve of any shape with a large fitted effect; inconclusive = falling curve, mostly with a smaller effect; inactive = flat or rising curve; cell line not stated here;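 note: intracellular cAMP measured with PDE inhibitor Ro 20-1724 present during compound exposure; potency is the fitted concentration of half-maximal effect; % is set by controls: 0 for no effect and ±100 for the full control effect; nearly all actives have a fitted effect of over 65% in size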
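Cells, 2000/well, grown 16–24 h in DMEM 10% FBS with 0.5 mg/ml G418, then compounds plus […] (300 uM addition stock), 30 min at 37C. cAMP read by HTRF (cAMP-d2 and anti-cAMP antibody-K in lysis buffer) after 30 min RT.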
Sfp inh: inhibitors of Bacillus subtilis Sfp phosphopantetheinyl transferase | AID 1490 | Q9F4F7 | Biochemical Sfp PPTase activity, qHTS | Potency, µM, inactives show max response, negative = inhibition, most hits filed as inhibitors | hit rate 3.5% among 310,000; active = well fitted inhibition curve with a large enough effect; inconclusive = small, poorly fitted or top-dose-only effect, or another doubt; inactive = no such curve, though single readings can be large or run the other way;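 note: the enzyme is Sfp with the accession as filed and its product quenches rhodamine fluorescence; potency is the fitted concentration of half-maximal effect; 0% = enzyme reaction without inhibitor and -100% = no enzyme wells; top concentration of the series not given in the record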
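Reaction rates are the 30-min fluorescence difference (ex 525, em 598 nm) in wells containing 15 nM Sfp, 5 uM rhodamine-CoA and 12.5 uM BHQ-2-YbbR at pH 7.6 with 10 mM MgCl2.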
ClpP mod: qHTS Assay for Activators of ClpP. ATP-dependent Clp protease proteolytic subunit (Bacillus subtilis (strain 168)), P80244. purified B. subtilis ClpP, FRET peptide cleavage, 20 min. AID 651965, 2013. Potency, µM (doses to about 57.5 µM), inactives show at the top dose activity change, negative = active. hit rate 1.9% among 340,000; active = well fitted falling curve with a large enough effect; inconclusive = small, poorly fitted or top-dose-only effect; inactive = no such curve, though single readings can be large or run the other way; note: potency is the fitted concentration of half-maximal effect; the source files actives as falling curves though it sought activators and does not explain the sign; nearly all actives have a fitted effect of over 65% in size; many hits overshoot -100%
Target sequence (P80244 whole entry, looked up): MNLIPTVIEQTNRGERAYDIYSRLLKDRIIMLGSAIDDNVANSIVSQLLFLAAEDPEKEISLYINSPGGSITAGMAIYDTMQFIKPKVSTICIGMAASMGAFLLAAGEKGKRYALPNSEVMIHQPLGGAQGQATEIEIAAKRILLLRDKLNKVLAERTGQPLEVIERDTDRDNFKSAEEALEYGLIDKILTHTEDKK
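FRET quenching reversal measured ClpP activation: 10 microg/mL B. subtilis ClpP at pH 8 with the FRET-FV decapeptide, read at 430 nm after 320 nm excitation. The 20-min minus 0-min signal was scaled between DMSO/no-enzyme wells and ADEP (5.8 microM final).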
gsp ag: gsp mutant agonism. gsp mutant cells, cAMP HTRF, 30 min; control for the full effect not named in the record. Potency, µM (top dose mostly 76.9 µM), inactives show top-dose activation (cAMP increase), usual class: activators. hit rate 0.13% among 340,000. AID 624287; active = well fitted activation curve with a large enough effect; inconclusive = small, poorly fitted or top-dose-only effect, or another doubt; inactive = no such curve, though single readings can be large or run the other way; cell line not stated here;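 note: phosphodiesterase inhibitor Ro 20-1724 added with compounds to block cAMP breakdown; potency is the fitted concentration of half-maximal effect; nearly all actives have a fitted effect of over 60% in size; about a fifth of the inactives were tested at one dose only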
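Cells in DMEM/10% FBS with G418 were pretreated with compounds in DMSO plus […] (300 uM stock) for 30 min at 37C. cAMP was measured by HTRF (cAMP-d2 plus anti-cAMP antibody-K) after 30 min at room temperature.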
Numbers without * were called inactive; ? = inconclusive; nt = no result given; & = joins results of further samples; [ ] = remark or other dose.

Start of the listing, in advance, eight compounds:
compound	TRPV1 potentiator	D2 potentiator	Menin MLL FP FL	gsp antag	Sfp inh	ClpP mod	gsp ag
O=C(NCc1cccs1)C1CCCN(c2nc3ccccc3o2)C1 (stereo not given)	-13	-4	3.7	-2%	-23%	-1.8%	-48%[inhibitor]
C=CCNc1nc(-c2ccccn2)nnc1-c1ccccc1	?	-28	-0.6	0%	?	-1.4%	-3%
COc1cc(CC(=O)OCC(=O)Nc2ccc(N3CCOCC3)cc2)cc(OC)c1OC	2	3	-2.6	1%	5%	1.0%	19%
Cc1ccc(NC(=O)c2ccc(F)cc2)cc1S(=O)(=O)N1CCCCCC1	-1	-3	-0.2	-8%	10%	nt	-3%
Fc1ccc2[nH]c3c(N4CCN(c5ccccc5)CC4)ncnc3c2c1	-3	-26	5.3	?	-3%	6.8%	17%
CC(=O)N1CCN(CC(=O)Nc2ccccc2Sc2ccc(Cl)cc2)CC1	-6	-1	3.8	?	-2%	0.6%	?
Cc1nc(S(=O)(=O)N2CCOCC2)c(C#N)c(C)c1Cl	8	-3	5.1	9%	8%	-0.1%	?
CC1(C)CC(=O)C=C(Nc2ccccc2O)C1	-8	-12	2.2	-6%	10%	-0.6%	28%

The list itself, repeating the preview:
compound	TRPV1 potentiator	D2 potentiator	Menin MLL FP FL	gsp antag	Sfp inh	ClpP mod	gsp ag
O=C(NCc1cccs1)C1CCCN(c2nc3ccccc3o2)C1 (stereo not given)	-13	-4	3.7	-2%	-23%	-1.8%	-48%[inhibitor]
C=CCNc1nc(-c2ccccn2)nnc1-c1ccccc1	?	-28	-0.6	0%	?	-1.4%	-3%
COc1cc(CC(=O)OCC(=O)Nc2ccc(N3CCOCC3)cc2)cc(OC)c1OC	2	3	-2.6	1%	5%	1.0%	19%
Cc1ccc(NC(=O)c2ccc(F)cc2)cc1S(=O)(=O)N1CCCCCC1	-1	-3	-0.2	-8%	10%	nt	-3%
Fc1ccc2[nH]c3c(N4CCN(c5ccccc5)CC4)ncnc3c2c1	-3	-26	5.3	?	-3%	6.8%	17%
CC(=O)N1CCN(CC(=O)Nc2ccccc2Sc2ccc(Cl)cc2)CC1	-6	-1	3.8	?	-2%	0.6%	?
Cc1nc(S(=O)(=O)N2CCOCC2)c(C#N)c(C)c1Cl	8	-3	5.1	9%	8%	-0.1%	?
CC1(C)CC(=O)C=C(Nc2ccccc2O)C1	-8	-12	2.2	-6%	10%	-0.6%	28%
O=[N+]([O-])c1ccc(S(=O)(=O)N2CCN(Cc3c[nH]c4ccccc34)CC2)cc1	15	9	5.4	-9%	?	-3.7%	6%
O=C(NNc1ccc(-c2csnn2)cc1)c1ccccc1C(F)(F)F	2	-4	-0.8	-1%	-5%	-1.4%	-8%[15.4 µM]
O=C(Nc1ccc(N2CCN(C(=O)c3ccc(Cl)cc3)CC2)cc1)c1cccs1	8	-2	nt	-23%	15%	0.8%	?
Cc1nc(NC(=O)COC(=O)CCc2nc3ccccc3s2)c(Cl)cc1Cl	-7	-5	5.8	-1%	8%	-1.0%	1%
CCCn1c(SCC(=O)NCCCN2CCCC2=O)nc2ccccc2c1=O	nt	-7	nt	-2%	nt	-4.4%	-4%
COc1cc(/C=N/N(CCO)C2=NS(=O)(=O)c3ccccc32)cc(OC)c1OC	6	3	-3.2	23%	6%	nt	10%
C=CCn1c(SCC(=O)NNC(=O)Nc2cccc(Cl)c2)nnc1-c1ccccc1	-2	-5	1.0	-10%	14%	-0.2%	17%
O=C(c1cccs1)n1nc(-c2ccco2)nc1SCc1ccccc1	0	-19	-0.1	-21%	-1%	?	-28%
CCCCCOC(=O)Cn1c(N2CCOCC2)nc2c1c(=O)[nH]c(=O)n2C	-14	-11	-0.9	-2%	8%	0.5%	-5%
CC(CN1CCC(O)CC1)c1ccccc1 (stereo not given)	24	-10	-0.1	-12%	-3%	-2.0%	4%[15.4 µM]
CC(=NNC(=S)N1CCN(c2ccccn2)CC1)c1ccccn1	nt	-15	nt	-13%	nt	-7.1%	29%
CC(C)(C)OC(=O)C[C@@H]1C/C=C\C[C@H](CC(=O)NCCO)C(=O)N2CCC[C@@H]2COC1=O	nt	-6	nt	6%	nt	-0.6%	nt
C/C(=N\NC(=O)c1nn(C)cc1Cl)c1ccncc1	1	5	2.4	12%	6%	-2.8%	-52%[inhibitor]
CCOC(=O)c1sc(=NC(=O)c2cc(OC)c(OC)c(OC)c2)n(C)c1C	9	-10	5.5	28%	3%	-3.2%	-29%
COCC(=O)Nc1nc(-c2ccccc2)ns1	-23	11	1.0	1%	9%	-0.5%	17%
COc1cccc(NC(=O)NC2CCCc3ccccc32)c1 (stereo not given)	-8	-5	-0.2	-4%	7%	nt	?
CCOC(=O)C1CCCN(S(=O)(=O)c2ccc3c(c2)N(C(C)=O)CCO3)C1 (stereo not given)	21	-4	2.7	-17%	22%	0.2%	-54%[inhibitor]
CCn1c(CSc2nnc(-c3ccoc3C)n2C)nc2cc(S(=O)(=O)N(C)C)ccc21	-2	3	-0.6	9%	3%	-2.4%	-2%
O=C(NC1CC1)c1cccc(S(=O)(=O)Nc2ccccc2F)c1	4	8	nt	4%	nt	-2.3%	0%
CCCCNc1ncnc2c1nnn2Cc1ccccc1Cl	?	3	3.9	3%	12%	1.0%	18%
Cc1cc(=O)cc(C)n1-c1ccc(Cl)c(Cl)c1	-2	-2	4.3	19%	20%	nt	-9%[15.4 µM]
CCOC(=O)c1c(Nc2ccc(Cl)cc2)sc(/C=C2\C=Nc3ccccc32)c1O	26	-5	1.9	4%	17%	0.4%	10%
COC(=O)c1c(C(=O)OC)c2ccccn2c1C(=O)c1ccccc1	5	4	-1.1	17%	11%	nt	-78%[inhibitor]
CC(=O)NCCc1nc2cc(NC(=O)c3ccc(Cl)cc3)ccc2n1C	2	-8	-1.0	-7%	6%	-4.4%	14%

The listing continues:
Second line of a record – TRPV1 potentiator	D2 potentiator	Menin MLL FP FL	gsp antag	Sfp inh	ClpP mod	gsp ag
S=C1SCN(Cc2ccccc2)CN1Cc1ccco1
    nt	-10	nt	nt	nt	-1.5%	-19%
CCOc1ccc2[nH]c(=O)c(C(c3nnnn3Cc3ccco3)N3CCCC(C)C3)cc2c1 (stereo not given)
    -5	3	?	-2%	13µM*	-24%	-3%
CCOC(=O)N1CCN(C(=O)c2ccc3c(c2)N(C)C(=O)/C(=C\c2ccc(OCC)c(OC)c2)S3)CC1
    6	20	-2.4	-10%	-5%	nt	-1%
Cc1cccc(OCCOc2ccccc2C=C(C#N)C#N)c1
    2	-19	0.0	15%	-29%	-2.3%	-32%[inhibitor]
Cc1cc(C)c[n+](CC(=O)c2ccc(-c3ccccc3)cc2)c1
    -2	-9	-2.3	14%	-29%	?	0%
O=C(NCCc1ccc2c(c1)OCCO2)c1ccc([N+](=O)[O-])cc1Cl
    -13	6	0.2	-5%	11%	-0.9%	-31%[inhibitor]
COc1ccc(NC(=O)C(=O)N/N=C/c2cccnc2)cc1
    12	-2	6.8	9%	4%	nt	-7%
O=C(c1ccco1)N1CCN(C(=O)C2CC(c3ccc(Cl)c(Cl)c3)=NO2)CC1 (stereo not given)
    -1	-5	-1.1	-10%	2%	-1.6%	-9%
Cn1nc(C(=O)NCc2cccnc2)c2ccccc2c1=O
    1	-8	-1.4	6%	20%	-0.6%	?
CSc1nc(-c2ccccc2)cc(C)c1C#N
    -6	-1	4.6	-14%	-11%	nt	15%[15.4 µM]
O=C(CCNC(=O)c1ccc(Cl)cc1)Nc1cccc(S(=O)(=O)N2CCCCC2)c1
    15	-10	nt	-10%	nt	-1.7%	-34%[inhibitor]
CC(C)COc1ccc(C(=O)Nc2ccc(N3CCOCC3)cc2N2CCOCC2)cc1
    -4	-6	2.8	-5%	-11%	0.6%	-3%
Cc1ccccc1C(=O)N1CCN(c2ccc(NC(=O)c3ccco3)cc2Cl)CC1
    -40	3	3.9	?	-23%	-0.1%	-21%
CCOc1ccc(N2C(=O)CC(SC(=NC)Nc3ccc(F)cc3)C2=O)cc1 (stereo not given)
    -8	-29	-7.3	-2%	3%	3.2%	1%
CN(CC(=O)Nc1ccc(F)cc1)C(=O)CCc1nc2ccccc2c(=O)[nH]1
    -18	-23	nt	2%	nt	-1.0%	0%
O=C(COc1ccc(Br)cc1)NC(=S)Nc1ccccc1N1CCOCC1
    11	-6	-4.2	-15%	12%	0.6%	-94%[inhibitor]
CC(C)Oc1cc(NC(=O)CS(=O)(=O)CC(=O)N(C)C)c(Cl)cc1Cl
    2	-5	0.9	-11%	19%	nt	1%
CCNc1ccc(S(=O)(=O)N2CCOCC2)cc1NCC(=O)Nc1cccc(Br)c1
    nt	-18	nt	nt	nt	-4.2%	0%
CN1CCN(S(=O)(=O)c2ccc(N(C)Cc3ccc(OC(F)F)cc3)c([N+](=O)[O-])c2)CC1
    2	-13	nt	1%	nt	-1.6%	-5%
CC1CCN(C(=O)Cn2c(=O)oc3cc(S(=O)(=O)N4CCCCC4)ccc32)CC1
    1	-1	nt	0%	24%	-0.2%&1.6%	1%
NC(=O)CCC(NS(=O)(=O)c1ccc(Cl)cc1)C(=O)NCC1CCCCC1 (stereo not given)
    6	-7	12	21%	-1%	nt	-2%[15.4 µM]
